VDR inhibitor: vitamin D3 receptor (human) inhibition. P11473. VDR-SRC2-3 peptide fluorescence polarization, 2 h. 400,000 tested, 0.93% active. Potency, µM, inactives show max response, negative = inhibition, hits mostly inhibitors; active = well fitted inhibition curve with a large enough effect; inconclusive = small, poorly fitted or top-dose-only effect, or another doubt; inactive = no such curve, though single readings can be large or run the other way; also: series mostly up to about 120 µM
Target sequence (P11473 whole entry, looked up): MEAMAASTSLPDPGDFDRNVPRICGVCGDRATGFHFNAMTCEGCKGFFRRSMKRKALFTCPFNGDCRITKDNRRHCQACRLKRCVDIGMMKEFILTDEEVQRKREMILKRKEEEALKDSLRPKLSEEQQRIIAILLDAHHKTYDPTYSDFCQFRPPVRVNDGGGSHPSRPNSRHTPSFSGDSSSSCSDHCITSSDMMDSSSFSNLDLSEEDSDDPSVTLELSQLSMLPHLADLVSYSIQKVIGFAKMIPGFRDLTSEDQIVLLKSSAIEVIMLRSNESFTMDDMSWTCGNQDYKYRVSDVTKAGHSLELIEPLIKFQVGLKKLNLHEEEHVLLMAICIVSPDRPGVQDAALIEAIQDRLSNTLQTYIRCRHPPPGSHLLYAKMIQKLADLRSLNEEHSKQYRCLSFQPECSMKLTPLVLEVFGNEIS
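Signal is fluorescence polarization, reporting how far test compounds block the interaction of VDR with the SRC2-3 coregulator peptide after a 2 h room-temperature incubation.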
Active calls of the source: *; ? = inconclusive. % is scaled to controls: 0 for no effect and ±100 for the full control effect; potency is read from the fitted curve at half-maximal effect. Only part of the results is shown, so the mix of outcomes need not match the whole.

VDR inhibitor,Compound
3%,Cc1ccc(CCNC(=O)c2ccc3c(Cl)c4c(nc3c2)CCCC4)cc1
7%,CCn1c(=O)c(C(=O)NCc2ccccc2OC)c(O)c2ccccc21
-3%,O=c1[nH]c(CN2CCOCC2)nc2cc(Cl)ccc12
-2%,CC(C)=C1C(=O)NN(c2ccc(F)c(Cl)c2)C1=O
-12%,COc1ccc(NC(=O)C(=O)NNC(=O)c2ccc(Cl)cc2Cl)cc1
20%,COc1ccc(CNC(=O)CCC(=O)N2CC3CCCN3c3ccccc32)cc1 (stereo not drawn)
6%,O=c1cc(N2CCN(c3ccc(F)cc3)CC2)[nH]c(=O)n1-c1ccc(Br)cc1
9%,COc1ccc(S(=O)(=O)N(C)c2ccc(C(=O)N3CCOCC3)cc2)cc1OC
13%,NNC(=O)Cn1c(-c2nonc2N)nc2ccccc21
16%,Nc1ccc(C(=O)OCCCc2nc3cc4ccccc4cc3[nH]2)cc1
-6%,C/C=C/C(=O)N1c2ccccc2C(C)=CC1(C)C
24%,COc1ccc(NS(=O)(=O)c2ccc3c(c2)CCC(=O)N3)c(OC)c1

Compounds from the list above with sulfur:
VDR inhibitor,Compound
9%,COc1ccc(S(=O)(=O)N(C)c2ccc(C(=O)N3CCOCC3)cc2)cc1OC
24%,COc1ccc(NS(=O)(=O)c2ccc3c(c2)CCC(=O)N3)c(OC)c1

(continued)
VDR inhibitor,Compound
-15%,COc1ccccc1CNC(=O)CCC(=O)n1ncc2cc(C)ccc21
1%,COc1cc(-c2nc(S(=O)(=O)c3ccc(C)cc3)c(N(C)C)o2)cc(OC)c1OC
13%,c1n[nH]c(NCc2ccc3c(c2)OCO3)n1
-15%,C=CCNc1nc(N2CCCC2)nc2ccccc12
-6%,O=C(COc1ccc2c3c(c(=O)oc2c1)CCCC3)NCc1cccnc1
-14%,CC(=O)Nc1ccc(S(=O)(=O)Nc2cc(S(=O)(=O)N3CCCCC3)ccc2O)cc1
-16%,Cc1ccc(Nc2ncnc(N)n2)cc1
10%,O=C(Cc1ccc([N+](=O)[O-])cc1)N1N=C2CCCCC2C1(O)C(F)(F)F (stereo not drawn)
-9%,Cc1ccc(NC(=S)NCC(C)CSc2ccc(Cl)cc2)cc1 (stereo not drawn)
29%,Cn1c(=O)c2c(nc(SCC(=O)c3cccs3)n2Cc2ccc(F)cc2)n(C)c1=O
-23%,CCOc1ccc(NC(=O)CN(C)C(=O)c2ccc(=O)[nH]c2)cc1OCC
2%,O=C(NCCc1nc2ccccc2n1Cc1c(F)cccc1Cl)c1ccco1
?,COc1cc(-c2nnc(NC(=O)CCS(=O)(=O)c3ccc(F)cc3)o2)cc(OC)c1OC
-4%,CN(C)C(CNC(=O)c1cccc(S(=O)(=O)N2CCN(c3ccccc3)CC2)c1)c1ccccc1 (stereo not drawn)
-9%,C=Cc1cc2c(cc1O)CCC1C2CCC2(C)C(O)CCC12 (stereo not drawn)
8%,CCOc1ccc2oc(C(=O)OCC(=O)NC3CCCC3)c(C)c2c1
-15%,CCn1c(=N)n(CC(=O)c2ccc(OC)c(OC)c2)c2ccccc21
-16%,COCCC(=O)NC12CC3CC(CC(C3)C1)C2
-2%,CC(C)NS(=O)(=O)c1ccc(NC(=O)C(C)OC(=O)C2CCC2)cc1 (stereo not drawn)
?,CC1=NOC(=O)/C1=C/c1ccc(O)c(Br)c1
89µM*,O=C(COC(=O)Cc1ccsc1)Nc1cccc(F)c1
-24%,O=S(=O)(NCC1CCN(c2ccc(S(=O)(=O)N3CCOCC3)cc2)CC1)c1ccc(F)cc1
9%,Cc1cc(C)n2c(SCc3ccc(Br)cc3)nnc2n1
7%,CCCc1c(C(=O)N/N=C/c2ccncc2)nnn1-c1nonc1N
0%,CCc1ccc(CNC(=O)Cc2ccc(NC(=O)N3CCSc4ncccc43)cc2)cc1
-19%,CC1CCN(C(=O)c2cc(S(=O)(=O)N3CCCCC3)c[nH]2)CC1
-9%,Cc1nnc(SCC(=O)Nc2ccc(F)cc2F)n(N)c1=O
5%,COc1ccccc1N1CCN(C(c2cccs2)C(C)NS(=O)(=O)c2ccccc2)CC1 (stereo not drawn)
4%,COc1cc(OC)cc(C(=O)N(Cc2ccco2)Cc2cccs2)c1
1%,CN(CC(=O)Nc1ccccc1Cl)C(=O)c1cccc(S(=O)(=O)N2CCN(Cc3ccccc3)CC2)c1
-4%,CCOC(=O)c1cc2n(c1N)-c1ccccc1C2=O
3%,NC(N)=N/N=C\c1c(Cl)cccc1Cl
14%,O=C(OCCOc1cccc(Cl)c1)c1ccc(F)c(S(=O)(=O)N2CCOCC2)c1
6%,O=C(Nc1ccnn1C1CCN(Cc2ccccc2)CC1)C1CCOC1 (stereo not drawn)
12%,COc1ccccc1N1CCN(c2ncnc3c2nnn3C)CC1
?,CCOc1ccccc1C(=O)Nc1cccc2cccnc12

Six entries already listed, arranged by SMILES length, lowest first:
VDR inhibitor,Compound
3%,NC(N)=N/N=C\c1c(Cl)cccc1Cl
12%,COc1ccccc1N1CCN(c2ncnc3c2nnn3C)CC1
-9%,Cc1nnc(SCC(=O)Nc2ccc(F)cc2F)n(N)c1=O
6%,O=C(Nc1ccnn1C1CCN(Cc2ccccc2)CC1)C1CCOC1 (stereo not drawn)
-19%,CC1CCN(C(=O)c2cc(S(=O)(=O)N3CCCCC3)c[nH]2)CC1
1%,CN(CC(=O)Nc1ccccc1Cl)C(=O)c1cccc(S(=O)(=O)N2CCN(Cc3ccccc3)CC2)c1

Going on with the list.
VDR inhibitor,Compound
-4%,CCOC(=O)C1=C(N)OC2=C(C(=O)CC(C)(C)C2)C1c1ccc(CC)s1 (stereo not drawn)
-6%,CCCNC(=O)C1(CC2CC(c3ccccc3)=NO2)CCN(C(=O)OC(C)(C)C)CC1 (stereo not drawn)
15%,COc1ccc(NC(=O)c2noc3c2CSc2ccccc2-3)cc1Cl
?,CC(=O)O[C@H]1CC(C)(C)C(=C=C/C(C)=C/C=C/C(C)=C/C=C/C=C(C)/C=C/C=C(\C)C(=O)C[C@@]23O[C@]2(C)C[C@@H](O)CC3(C)C)[C@](C)(O)C1
-10%,COc1ccc(CN(C(=O)c2snc(C(N)=O)c2N)C(C(=O)NC2CCCC2)c2ccco2)cc1 (stereo not drawn)
-4%,CCOc1ccc2nc(N3C(=O)C(O)=C(C(=O)c4ccco4)C3c3ccco3)sc2c1 (stereo not drawn)
16%,Cc1ccc2[nH]c(CSc3nnc(NC(=O)COc4ccc(F)cc4)s3)cc(=O)c2c1
0%,COc1cc(OC)cc(C(=O)N=c2sc3ccccc3n2C)c1
2%,CCN(CC)S(=O)(=O)c1ccc(Cl)c(NC(=O)CCCCl)c1
-16%,COc1ccccc1-c1nnc(SCC(=O)Nc2cccnc2Cl)n1C
-3%,O=C(CN1C(=O)C2C3C=CC(C3)C2C1=O)NCC1COc2ccccc2O1 (stereo not drawn)
-10%,C#CCOCCOCCOCCNc1nc(N2CCN(C(=O)CCCCCCCCCCNC(=O)[C@H](CO)n3cc(CCCSC)nn3)CC2)nc(N2CCN(C(=O)CCCCCCCCCCNC(=O)[C@H](CO)n3cc(CCCSC)nn3)CC2)n1
5%,CCCC12CN(C(=O)c3ccco3)CC(CCC)(CN(C(=O)c3ccco3)C1)C2=O
-7%,CC1CCCCN1C(=O)Cn1cc(C(=O)c2ccco2)c2ccccc21 (stereo not drawn)
5%,COCC(=O)OCc1cc2cccc(C)c2[nH]c1=O
-12%,COc1ccc(C(=O)NCc2cc3ccccc3n2C)cc1
?,CCN(CC)C(=O)c1sc2nc(-c3cccs3)cc(-c3ccc(Cl)cc3)c2c1N
-17%,S=C(c1ccc(-c2cc(Cl)ccc2Cl)o1)N1CCCCC1
10%,CN(C(=O)c1ccc(F)c(S(=O)(=O)N2CCOCC2)c1)C1CCCCC1
18%,O=C(N/N=C/c1ccc(F)cc1)c1sccc1OCc1ccc(F)cc1
14%,COC(=O)c1scc(-c2ccc(C)cc2)c1S(=O)(=O)Nc1cc(C)ccc1OC
-4%,Cc1oc2c(cc(NS(=O)(=O)c3ccc(Cl)cc3)c3ccccc32)c1C(=O)OCc1ccccc1
-6%,CCOC(=O)C1CCCN(C(=O)c2cccc([N+](=O)[O-])c2C)C1 (stereo not drawn)
-16%,COc1ccc(-n2c(-c3ccc(Cl)cc3)c[n+]3c2CCCCC3)cc1

Individual results from the results shown:
VDR inhibitor with O=C(OCCOc1cccc(Cl)c1)c1ccc(F)c(S(=O)(=O)N2CCOCC2)c1 stands at 14%
VDR inhibitor with CCCc1c(C(=O)N/N=C/c2ccncc2)nnn1-c1nonc1N stands at 7%
VDR inhibitor with CC(=O)Nc1ccc(S(=O)(=O)Nc2cc(S(=O)(=O)N3CCCCC3)ccc2O)cc1 stands at -14%
VDR inhibitor with COCC(=O)OCc1cc2cccc(C)c2[nH]c1=O stands at 5%
VDR inhibitor with O=C(Nc1ccnn1C1CCN(Cc2ccccc2)CC1)C1CCOC1 (stereo not drawn) stands at 6%
VDR inhibitor with CCCNC(=O)C1(CC2CC(c3ccccc3)=NO2)CCN(C(=O)OC(C)(C)C)CC1 (stereo not drawn) stands at -6%

Next section:
VDR inhibitor,Compound
14%,O=C(NCCCn1ccnc1)/C(=C/c1ccco1)NC(=O)c1ccccc1
-10%,CS(=O)(=O)N(CCCC(=O)N1CCCCCC1)c1cccc(Cl)c1
-4%,CCOc1ccc(CN2C(=O)CCC2(C)C(=O)NCc2cccnc2)cc1 (stereo not drawn)
-15%,C=CCNC(=O)c1onc(CSc2nc3ccccc3[nH]2)c1C(=O)NCC=C
8%,Cc1cccc(N2C(=O)CC(Sc3ncn[nH]3)C2=O)c1 (stereo not drawn)
0%,O=C(O)c1cccc(S(=O)(=O)Nc2ccc(Oc3ccccc3)cc2)c1
-4%,COc1ccc(-c2ccc([C@H]3[C@@H]4C=CCC[C@@]4(C)C(=O)N3Cc3ccccc3)c(F)c2)cc1OC
?,O=C(O)c1c(-c2ccccc2)oc2ccc(OCc3ccc(Cl)c(Cl)c3)cc12
-15%,CC(=O)N1CCc2c(sc3c2c(=O)n(-c2ccc(F)cc2)c(=O)n3Cc2ccc(C#N)cc2)C1
-11%,Cc1ccccc1NP(=O)(c1ccccc1)c1nc2ccccc2s1 (stereo not drawn)
?,COc1cc(-n2c(C)nc3cc(C(=O)NCc4ccco4)ccc32)cc(OC)c1OC
22%,CCCCCCC1CC(CSc2ncn[nH]2)OC1=O (stereo not drawn)
9%,Cc1ccc(C(=O)CN2C(=O)C(=O)N(Cc3ccccc3)C2=O)cc1
-3%,CC1Cn2c(nnc2-c2cccc(Cl)c2)S1 (stereo not drawn)
0%,CSc1nsc(SCC(=O)N2CCCc3ccccc32)n1
-7%,Cc1cccc(NC(=O)CCC2CCN(C(=O)C3CC=CCC3)CC2)c1 (stereo not drawn)
10%,Cc1nn(CCC(=O)Nc2ccccc2Br)c(=O)c2nn(-c3ccccc3)c(C)c12
1%,COC(=O)c1c(C)noc1-c1cc(C)on1
-11%,COc1cc(S(=O)(=O)N2CCN=C2c2ccccc2)ccc1Cl
-9%,CCOC(=O)c1c(-c2ccc(C)o2)csc1NC(=O)CN1CCN(CC)CC1
9%,COC(=O)c1ccc2c(=O)n(CCCCCC(=O)NCCc3ccc(Cl)cc3)c(=O)[nH]c2c1
?,CCCCCN(C(=O)CCC(=O)OCCOc1cccc(C)c1)c1c(N)n(CCCC)c(=O)[nH]c1=O
-19%,CCN1CCN(S(=O)(=O)c2ccc(C)c([N+](=O)[O-])c2)CC1
-7%,CCS(=O)(=O)c1ncc(Cl)c(C(=O)NCc2ccccc2)n1
9%,CC(C)c1ccc(CNC(=O)CCc2ccccc2)cc1
-5%,CCCCN(C(=O)COC(=O)COc1c(C)cc(C)cc1C)c1c(N)n(CCC)c(=O)[nH]c1=O
15%,O=C(Nc1ccccc1)OCCc1ccccn1
-6%,COc1ccccc1C(=O)N1CCN=C1SC
-8%,O=C(CCSc1ccc(Cl)cc1)N1CCN(c2ccc(O)cc2)CC1
16%,Cc1ccc(C)c(N2CCN(S(=O)(=O)c3ccc(F)c(C(=O)Nc4ccc(Cl)cc4Cl)c3)CC2)c1
3%,Cc1cccc(N(CC(=O)N2CCCC2)S(=O)(=O)c2ccccc2)c1
5%,COc1ccc(NC(=O)C(=O)c2cc(C)n(-c3ccc(C)cc3)c2C)cc1Cl
-3%,CCOC(=O)C1CCCN(C(=O)c2ccc3c(c2)sc2nc(-c4cccc(OC)c4)cn23)C1 (stereo not drawn)
-12%,CCN1CCN(C(CNS(=O)(=O)c2ccccc2)c2cccnc2)CC1 (stereo not drawn)
5%,C=CCN(CC=C)S(=O)(=O)c1ccc(C(=O)Nc2nnc(COC)o2)cc1
1%,Cc1c(NC(=S)N/N=C/c2cc([N+](=O)[O-])ccc2O)c(=O)n(-c2ccccc2)n1C
-16%,C=CCOc1ccc(C2NC(=O)c3ccccc3O2)cc1OCC (stereo not drawn)
-24%,C/C(=N/Nc1ccc(F)cc1)c1ccc(Cl)s1
-4%,C=CCNc1nnnc2c1sc1nc(N3CCOCC3)c3c(c12)CCCC3
16%,O=C(O)c1nc(N2CCCCC2)ncc1Cl
-23%,Clc1ccc(/C=N/Nc2ncnc3nc[nH]c23)cc1
-11%,COC(C(=O)Nc1ccnn1C1CCN(Cc2ccc(CO)o2)CC1)c1ccccc1 (stereo not drawn)
-1%,CCC(=O)Nc1ccc(S(=O)(=O)Nc2ccc(Cl)nn2)cc1
-12%,CCOC(=O)C1(Cc2cccc(Cl)c2)CCCN(C(=O)c2cccnc2)C1 (stereo not drawn)
10%,CCC(Oc1ccccc1)C(=O)N1CC(C)CC(C)C1 (stereo not drawn)
?,COc1ccc(OC)c(NC(=O)Cc2c(C(=O)O)[nH]c3ccc(Cl)cc23)c1
-18%,C#CCOCCOCCOCCNc1nc(N2CCN(C(=O)[C@H](CCCCN)n3cc([C@@H](N)CC(C)C)nn3)CC2)nc(N2CCN(C(=O)[C@H](CCCCN)n3cc([C@@H](N)CC(C)C)nn3)CC2)n1
?,COc1ccc(C(=O)Cn2c(C)nc([N+](=O)[O-])c2Br)cc1
-7%,O=C1c2ccccc2C(=O)N1Cc1ccccc1F
6%,O=C(COc1ccc(S(=O)(=O)NC2CCCCC2)cc1)NCCC1=CCCCC1

Screening data from PubChem.
